E coli growth = E. coli growth inhibition. Escherichia coli growth, OD600, 23 h; hits give low values. OD600 absorbance (test concentration not listed). 0.21% of 330,000 active;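 active means OD600 absorbance below the run mean of sample wells minus 3.6 SD, in any replicate, cut at about 0.56 in these data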;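 further: stock transfer was 300 nL into about 60 µL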
HNF4A DNA FP = change in binding of human HNF4 alpha to DNA | activity change, % at 10 µM | P41235 | HNF4a-FITC DNA binding, fluorescence polarization, 1 h | 0.3% of 360,000 active; in the data active means activity change above about 30%, passing the limit was not always enough;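 further: controls were the assay level and a saturating level of protein; the project sought stronger binding though the title names inhibitors; some compounds called inactive have numbers as strong as hits; positive values seem to mean higher polarization but the record does not say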
RanGTP-Impb inh = inhibitors of RanGTP-importin-beta interaction, primary screen, biochemical, FRET, CFP-Ran, YFP-importin-beta, homogeneous; cell-free CFP-Ran/YFP-importin-beta FRET ratio; 1.1% of 300,000 active; inhibition, % (no concentration beside the values); AID 2216;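 active means most replicates above 15%; inconclusive means exactly half above 15%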;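 further: 0% = DMSO wells and 100% = Ran loaded with GDP instead of GTP; wells of about 40 µL received 100 nL stock; the first replicate is given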
UCH37 DUB inh = inhibitors of human deubiquitinating enzyme UCH37; inhibition, % (concentration not given with the values); Q9Y5K5; 0.33% of 330,000 active; AID 588478; purified proteasome/UCH37, Ub-AMC cleavage fluorescence;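 active means mean of two replicates above 20%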;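 further: 0% = compound-free wells with enzyme and 100% = wells lacking proteasome; stock transfer was 100 nL into about 20 µL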
Target sequence (Q9Y5K5 whole entry, looked up): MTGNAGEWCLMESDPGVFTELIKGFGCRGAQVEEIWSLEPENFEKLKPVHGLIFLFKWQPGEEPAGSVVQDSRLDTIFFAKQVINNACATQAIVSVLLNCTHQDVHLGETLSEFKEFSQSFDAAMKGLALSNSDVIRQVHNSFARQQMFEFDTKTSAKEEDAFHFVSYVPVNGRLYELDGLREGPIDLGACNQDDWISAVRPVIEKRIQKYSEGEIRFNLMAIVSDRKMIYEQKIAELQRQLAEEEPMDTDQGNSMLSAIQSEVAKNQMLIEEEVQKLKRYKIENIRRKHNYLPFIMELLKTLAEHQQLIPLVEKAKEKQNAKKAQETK
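assay system = human UCH37 enzyme supplied as purified proteasome complex | amount = proteasome at 0.15 nM in the dispensed enzyme solution | schedule = 30 min compound-proteasome preincubation then 25 min substrate reaction, room temperature | measured by = fluorescence, ex 355 nm, em 460 nm | benchmarks = no-proteasome wells (full inhibition) and compound-free wells (no inhibition)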
FGF22 binding = FGF22 (human) thermal shift binding; Q9HCT0; recombinant FGF22 thermal shift, SYPRO orange fluorescence; percent of sucrose octasulfate shift, DMSO zero; calls only at 9.99 µM; 1.5% of 340,000 active;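 active means melting point raised past a set limit in the mean and every replicate; inconclusive means no clear call; three in four hits are not shown here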
Target sequence (Q9HCT0 whole entry, looked up): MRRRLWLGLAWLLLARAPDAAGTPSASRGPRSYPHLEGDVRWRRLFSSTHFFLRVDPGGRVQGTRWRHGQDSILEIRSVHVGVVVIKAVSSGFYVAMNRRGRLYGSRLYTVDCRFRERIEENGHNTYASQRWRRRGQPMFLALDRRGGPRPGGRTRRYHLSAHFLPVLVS
AF4-AF9 inh = blocks AF4 peptide binding to human AF9 | AlphaScreen, biotin-AF4 peptide binding to FLAG-AF9 | inhibition, % at 10 µM | P42568 | 0.47% of 350,000 active;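 active means every replicate reaching a set inhibition limit, whatever the replicate mean, cut at about 25% in these data; inconclusive means mean inhibition reaches that limit but some replicates miss it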;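 further: 0% = plate neutral control median and 100% = total signal loss; the record names both 10 and 1 µM as test concentration; the first replicate is given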
Target sequence (P42568 whole entry, looked up): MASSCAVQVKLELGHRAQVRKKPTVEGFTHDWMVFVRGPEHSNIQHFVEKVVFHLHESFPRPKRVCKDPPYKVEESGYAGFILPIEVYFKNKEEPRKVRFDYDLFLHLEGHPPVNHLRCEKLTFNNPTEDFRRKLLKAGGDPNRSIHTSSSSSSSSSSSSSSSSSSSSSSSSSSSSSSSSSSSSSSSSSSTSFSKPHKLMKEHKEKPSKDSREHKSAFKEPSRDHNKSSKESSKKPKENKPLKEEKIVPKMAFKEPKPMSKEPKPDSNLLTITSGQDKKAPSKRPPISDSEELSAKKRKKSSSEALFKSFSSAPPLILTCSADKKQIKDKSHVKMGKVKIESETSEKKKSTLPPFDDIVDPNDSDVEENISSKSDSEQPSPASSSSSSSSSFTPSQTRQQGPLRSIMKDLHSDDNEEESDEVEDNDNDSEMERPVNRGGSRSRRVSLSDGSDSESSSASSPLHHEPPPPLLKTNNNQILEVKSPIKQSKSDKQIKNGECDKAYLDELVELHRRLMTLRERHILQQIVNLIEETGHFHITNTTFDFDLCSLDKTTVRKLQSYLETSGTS
Vif TR-FRET = inhibitors of Vif binding to APOBEC3G peptide, primary screen, biochemical, TR-FRET, GST-Vif 1-94, biotin-A3G peptide, dose response retest (AID 1117319) | TR-FRET GST-Vif / biotin-A3G peptide binding; higher % means a stronger effect; test concentration not given here; strong numbers were not always called active | inhibition, %, or IC50 in µM where a hit was titrated | 0.57% of 260,000 active;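 active means above the screen mean plus three standard deviations and confirmed in dose response; inconclusive means results disagree or hit not tested in dose response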;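 further: Vif residues 1-94 fused to GST binding biotinylated APOBEC3G peptide 110-148; 0% = full assay without inhibitor and 100% = GST in place of GST-Vif; retest series ran down from 100 µM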
* marks the source's active call; other numbers are inactive results; i = inactive; ? = inconclusive; / = not tested or not shown; & = joins results of further samples. Not all compounds are listed. The share of hits here may be higher or lower than overall.

SMILES	E coli growth	HNF4A DNA FP	RanGTP-Impb inh	UCH37 DUB inh	FGF22 binding	AF4-AF9 inh	Vif TR-FRET
CC1CCN(S(=O)(=O)c2ccc(NC(=O)C3CCN(C(=O)c4ccco4)CC3)cc2)CC1	0.71	0.6	?	6.5	i	-1.0	3%
COc1ccc(N(C(=O)Cn2cnc3ccccc32)C(C(=O)NC2CCCCC2)c2ccccc2)cc1 (stereo unspecified)	0.65	-0.9	?	-0.4	/	/	-6%&0%
COc1cccc(C2=NOC(C(=O)Nc3c(C)n(C)n(-c4ccccc4)c3=O)C2)c1 (stereo unspecified)	0.69	2.8	-0.6	4.8	i	-29	-4%
O=C(N1CCOCC1)C1(c2ccc(Cl)cc2)CCCC1	0.69	-1.4	5.1	1.8	/	/	4%
O=C1CSC(c2cccnc2)N1CC1CC1 (stereo unspecified)	0.68	-4.8	3.2	7.8	i	-1.4	-8%
Cc1ccc(CN2CCC(C)(Oc3cccc(Cl)c3)C2)cc1 (stereo unspecified)	/	-9.9	/	/	i	3.4	/
O=C(/C=C/Nc1ccc(Cc2ccc(N/C=C/C(=O)C(F)(F)F)cc2)cc1)C(F)(F)F	0.72	4.2	1.8	-61	/	/	/
CC1(C(=O)NS(=O)(=O)C2CC2)CCN(C(=O)c2ccccc2C(F)(F)F)C1 (stereo unspecified)	/	0.8	/	/	i	-5.7	/
CCC(CC)n1[nH]c(=O)c2c(C)cc(C)nc21	0.7	1.0	/	-2.2	/	/	28%
O=C(CCC1CCCN(C(=O)c2ccsc2)C1)N1CCN(c2ccccn2)CC1 (stereo unspecified)	0.69	1.5	-1.7	-1.0	i	7.0	?
Cc1cc(C)cc(N2CC(C(=O)OCC(=O)Nc3cc(C)on3)CC2=O)c1 (stereo unspecified)	0.65	5.7	2.2	5.7	i	-0.3	12%
CN1CCN(C(=O)/C=C/c2ccc([N+](=O)[O-])o2)CC1	0.43*	-2.2	2.0	4.8	i	-0.2	?

Record cards, from the list above. Values in the order: E coli growth, HNF4A DNA FP, RanGTP-Impb inh, UCH37 DUB inh, FGF22 binding, AF4-AF9 inh, Vif TR-FRET
O=C(CCC1CCCN(C(=O)c2ccsc2)C1)N1CCN(c2ccccn2)CC1 (stereo unspecified) across the screens: 0.69, 1.5, -1.7, -1.0, i, 7.0, ?
O=C(N1CCOCC1)C1(c2ccc(Cl)cc2)CCCC1 across the screens: 0.69, -1.4, 5.1, 1.8, /, /, 4%

(more compounds)
SMILES	E coli growth	HNF4A DNA FP	RanGTP-Impb inh	UCH37 DUB inh	FGF22 binding	AF4-AF9 inh	Vif TR-FRET
COC(=O)c1ccn(CC(=O)NC2CCCCC2)n1	0.7	-3.3	4.5	2.7	i	-2.8	/
Cc1cnc(C)c(N2CCN(Cc3nc(-c4cccc(F)c4F)oc3C)CC2)n1	0.7	-0.2	5.6	2.2	i	4.1	?
CCCCCCCN1CCC(=O)N([C@H](CO)CC(C)C)CC1	/	2.0	2.0	-2.3	i	-0.5	/
Cn1cc(S(=O)(=O)N2CCN(c3cccc(C(F)(F)F)c3)CC2)c(=O)n(C)c1=O	0.75	2.1	4.7	7.3	i	-3.1	2%
COc1cccc(NC(=S)N(CCc2ccc(OC)c(OC)c2)Cc2ccccn2)c1	0.69	-11	-0.5	5.7	i	-0.7	22%
CCc1ccc(OC(=O)c2cccnc2)cc1	0.63	-1.7	1.6	2.8	i	-1.4	8%
CC(C)(C)C1CCC2(CC1)NC(=S)N(c1ccccc1)N2 (stereo unspecified)	0.72	0.8	?	1.3	/	/	10%
O=C1CCCN1C(=O)COc1cc(F)ccc1[N+](=O)[O-]	0.69	-2.2	/	6.7	i	-8.1	/
CC(C)NC(=O)c1ccc2c(c1)N(CC(=O)NC1CCCCC1)C(=O)C(C)(C)O2	0.67	-0.9	-0.2	5.0	i	-7.7	-2%
Cc1nn(C)cc1/C=N\NC(=O)c1csc2c1CCCC2	/	-0.1	-0.1	/	i	-0.6	-2%
CC1=C(C(=O)Nc2cc(C(=O)N3CCN(c4cccc(C)c4)C(C)C3)ccc2C)SCCO1 (stereo unspecified)	0.7	-2.0	-0.2	3.4	i	14	/
CN(C)C(CNC(=O)C1CCN(S(=O)(=O)c2cc(Cl)ccc2Cl)CC1)Cc1ccccc1 (stereo unspecified)	0.66	-4.0	/	5.0	i	7.9	/
CCN(CC)S(=O)(=O)c1ccc2c(c1)nc(CCC(=O)OCc1c(C)noc1C)n2C	0.65	3.7	-1.9	1.6	/	/	10%
CCCCn1c(N)c(-c2nc3ccccc3o2)c2c([N+](=O)[O-])nn(CC)c(=O)c21	0.67	-14	3.1	7.7	i	0.4	8%
CC1CC(C)CN(CCCNC(=O)Cn2cccc2C(=O)c2ccccc2)C1 (stereo unspecified)	0.69	-6.5	1.9	3.3	i	-6.4	/
Cc1cc(N2CCOCC2)nc2ccc(NC(=O)CCC(=O)N3CCN(c4cccc(C(F)(F)F)c4)CC3)cc12	0.65	5.8	?	-115	i	1.3	/
CCOCc1c(C(=O)OCC(=O)NCc2ccc(F)cc2)oc2ccccc12	0.72	-1.0	/	6.4	i	-2.6	-4%
CC(CC(=O)Nc1ccc2c(c1)c(=O)n(C)n2Cc1ccc(F)cc1)C(F)(F)F (stereo unspecified)	/	3.2	/	/	i	-0.7	/
CC12CCC(C(=O)Nc3cccnc3)(CC1=O)C2(C)C (stereo unspecified)	0.7	-2.1	-4.0	0.8	/	/	0%
CCOC(=O)C1(Cc2ccccc2)CCCN(Cc2cccc(C(C)=O)c2)C1 (stereo unspecified)	0.6	2.1	1.1	0.2	i	0.7	7%
Cc1ccc(/C(N)=N/OC(=O)N2c3ccccc3Sc3ccccc32)cc1	0.67	-4.8	-4.0	0.2	/	/	-3%
CCCC#Cc1ccc2c(c1)COc1c3ccccc3nn1-2	0.69	-3.0	0.5	0.3	i	1.2	/
Cc1ccccc1CC1(C)C(=O)Nc2ccc(S(=O)(=O)NC3CCCCC3)cc21 (stereo unspecified)	/	3.2	/	/	i	-3.1	/
COc1ccc(NC(=O)COc2ccc(-c3ccccc3)cc2)cc1	0.67	1.6	/	0.2	i	-0.7	/
COc1ccc(/C=C/C(=O)NC(=S)NNC(=O)c2ccco2)cc1OC	0.69	-1.8	-1.9	2.7	i	-13	8%
O=C(c1cnc(N2CCN(c3ncccn3)CC2)c2ccccc12)N1CCN(c2ncccn2)CC1	0.71	0.7	2.0	-0.3	/	/	4%
COc1ccc(C(=O)NC2CCN(C(=O)NC3CCCCC3)CC2)cc1	0.68	1.2	3.2	4.2	/	/	2%
Cn1c(N)c(C(=O)COC(=O)c2ccc3c(c2)OCCO3)c(=O)n(C)c1=O	0.7	-0.3	-3.0	1.3	/	/	-16%
Cc1cc(C)cc(NC(=O)CCn2ccnc2C)c1	0.72	0.2	1.1	-0.8	/	/	-4%
CC(=O)Nc1ccc(-c2nnc(SCC(=O)NCc3ccco3)n2C)cc1	0.71	4.4	1.5	4.3	/	/	9%
COc1ccccc1NC(NC(=O)c1cccnc1)C(Cl)(Cl)Cl (stereo unspecified)	0.71	0.1	1.4	7.9	i	2.7	/
O=C(c1cc(F)c(F)cc1Cl)N1CCN(CCc2ccccc2)CC1	0.68	-5.5	-0.2	2.7	i	-12	/
CC1CCCC(C)N1C(=O)COc1ccc(F)cc1 (stereo unspecified)	0.68	1.4	1.0	7.2	i	-2.2	/
Cc1cc(C(=O)CSc2nc3ccccc3o2)c(C)n1CC1CCCO1 (stereo unspecified)	0.76	1.9	0.5	2.9	/	/	2%
Cc1ccc(/C=C(\C#N)C(=O)NC(C)C)o1	0.66	0.6	0.2	12	i	-2.9	-3%
CCOC(=O)CSc1nnc(CNC(=O)c2cccs2)n1CCc1ccccc1	0.73	-2.4	-0.2	-1.4	i	3.8	73%

Quoted from the listing:
AF4-AF9 inh with COc1ccccc1NC(NC(=O)c1cccnc1)C(Cl)(Cl)Cl (stereo unspecified) → 2.7
Vif TR-FRET with CC(=O)Nc1ccc(-c2nnc(SCC(=O)NCc3ccco3)n2C)cc1 → 9%
E coli growth with CC1CCCC(C)N1C(=O)COc1ccc(F)cc1 (stereo unspecified) → 0.68

(further entries)
SMILES	E coli growth	HNF4A DNA FP	RanGTP-Impb inh	UCH37 DUB inh	FGF22 binding	AF4-AF9 inh	Vif TR-FRET
CCOC(=O)CSc1nnc(NC(=O)c2cccc(S(=O)(=O)N3CCCCC3)c2)s1	0.71	-5.4	-1.4	-16	/	/	-3%
Cc1ccc(Sc2c([N+](=O)[O-])c(C)nn2C)cc1	0.68	2.6	-2.4	3.4	i	-0.6	-4%
OC(CNCC1COc2ccccc2O1)COCc1cccs1 (stereo unspecified)	0.69	-1.5	-6.7	4.9	/	/	5%
COc1ccc(CNCc2c(O)c(Cl)cc3c(C)c(C)c(=O)oc23)c(OC)c1	0.65	-0.5	18*	i	i	0.4	-1%
CCCCN(C(=O)CC1CCCC1)c1c(N)n(CC(C)C)c(=O)[nH]c1=O	0.63	0.1	-6.8	0.6	i	-1.4	-5%
CCOc1cc(C(=O)NC)cc(Br)c1OC	0.68	3.4	5.2	4.6	i	-0.9	-5%
C=CCNC(=O)CN(Cc1ccccc1)S(=O)(=O)c1ccccc1	0.65	2.7	-3.8	-0.7	i	-7.4	/
COC(=O)c1ccc(Cl)c(NC(=O)CN(c2ccc(OC)cc2)S(=O)(=O)c2ccccc2)c1	0.74	-0.1	0.9	0.0	/	/	/
Brc1ccc2nc(-c3ccco3)c(Cc3ccsc3)n2c1	/	-3.1	/	/	/	-4.8	/
CCC(C)(C)n1nnnc1CN1CCC(NC(=O)c2ccc(Br)cc2)CC1	0.74	3.2	3.3	0.9	/	/	21%
CCCn1nc([N+](=O)[O-])c(C(C#N)c2nc3ccccc3o2)c(Cl)c1=O (stereo unspecified)	0.65	-2.2	-0.1	15	/	/	17%
CCNC(=O)C1CCCN1S(=O)(=O)c1ccc(C)cc1 (stereo unspecified)	0.65	-0.5	?	0.7	i	6.2	-2%
COC(=O)CN(CCc1ccccc1)S(=O)(=O)c1ccc(OC)c(OC)c1	0.72	-4.6	-4.4	-1.5	/	/	-9%
COc1ccc(OC)c2[nH]c(=O)c(CCNC(=O)c3ccc(S(=O)(=O)N4CCCCC4)cc3)cc12	0.72	3.8	-1.8	/	/	/	9%
Nc1c2c(nc3ccccc13)CSCC2	0.7	-1.1	2.0	0.0	i	6.0	/
Cc1sc(NC(=O)c2ccco2)c(C(c2cccnc2)N2CCCC2)c1C (stereo unspecified)	0.68	-2.4	2.1	-0.2	/	/	-3%
O=C(CCN1C(=O)/C(=C/c2ccccc2)SC1=S)NNC(=O)c1cccnc1	/	-1.8	-0.1	/	/	/	-1%
COc1ccccc1COC(=O)c1ccc(S(=O)(=O)N2CCOCC2)cc1	0.69	-0.6	/	1.3	i	1.0	12%
Cc1cc(C)n(CC(=O)NC2CCCCC2C)c(=O)c1C#N (stereo unspecified)	0.66	2.3	3.9	2.2	i	1.6	/
O=C1OC(Nc2nccs2)c2ccccc21 (stereo unspecified)	0.75	3.6	-3.0	4.6	/	/	0%
Cc1cc(C)cc(N2C(=O)C3NN=C(C(=O)OCc4ccccc4)C3C2=O)c1 (stereo unspecified)	/	-4.3	2.6	-0.4	/	/	/
NC(=O)c1ccsc1NC(=O)CSc1n[nH]c(N)n1	0.71	2.0	/	1.4	i	1.3	/
COc1ccc(OCC(=O)O/N=C(\N)Cc2ccc(Cl)cc2)cc1	0.71	0.9	6.9	2.5	/	/	78%
CCCC(C(=O)NC1CCCC1)N(CC1CCCO1)C(=O)CNS(=O)(=O)c1ccc(F)cc1 (stereo unspecified)	0.7	-3.0	0.0	0.2	i	-0.8	4%
Cc1cc(Cl)ccc1Oc1ncnc2onc(C)c12	0.62	-1.6	7.3	0.8	i	-1.5	-5%
Cc1nonc1CN(C)C(=O)CC1C(=O)NCCN1Cc1ccccc1C(F)(F)F (stereo unspecified)	0.73	0.2	-3.8	-0.6	i	-3.3	6%

High-throughput results: PubChem BioAssay, several laboratories
